Screens (PubChem BioAssay)
YopH inh – YopH (Yersinia) phosphatase inhibition; 140,000 compounds, 0.16% hits; inhibition, %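 (about 10 µM by stock and volumes)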; fluorescence Ex485/Em525;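 active = inhibition of 50% or more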;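 also: controls were vehicle for no effect and minimum signal wells for full effect; inactives centre near -20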
Mtb betalactam – beta-lactam sensitization of Mtb H37Rv | inhibition, % at 25 µM | 330,000 compounds, 0.27% hits | M. tuberculosis H37Rv growth with meropenem, percent inhibition; hits of this screen are not shown here;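 active = about 74% or more and at least 40 points above the plate without the antibiotic, then above 30% in a dose series; inconclusive = first-round hits that could not be retested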;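 also: growth measured after seven days incubation then overnight dye step; 0% = bacteria only wells and 100% = bacteria with antibiotic; twin plates without the antibiotic show which effects depend on it; some results filed as inactive read as strong as hits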
Mtb growth – M. tuberculosis H37Rv growth inhibitors, H37Rv strain (AID 1626) | M. tuberculosis H37Rv growth inhibition; higher % means a stronger effect | inhibition, % at 10 µM, or IC50 in µM where a hit was titrated | 220,000 compounds, 0.95% hits;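 active = confirmed in a dose series; inconclusive = inhibition above 80% but not taken into the dose series; inactive = below 80% or under 30% at every dose of the series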;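 also: bacteria incubated seven days before Alamar blue readout; 0% = bacteria only wells and 100% = bacteria with antibiotic wells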
RecA splice inh – blocks M. tuberculosis RecA intein splicing; AID 2221; P9WHJ3; inhibition, %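 (about 9 µM by stock and volumes)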; 290,000 compounds, 0.75% hits; cell-free RecA intein splicing, fluorescence; in the data active = inhibition above about 30%; inconclusive = no clear call, values can overlap the other calls;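 also: 0% = vehicle wells and 100% = reference inhibitor control wells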
Target sequence (P9WHJ3 whole entry, looked up, canonical isoform): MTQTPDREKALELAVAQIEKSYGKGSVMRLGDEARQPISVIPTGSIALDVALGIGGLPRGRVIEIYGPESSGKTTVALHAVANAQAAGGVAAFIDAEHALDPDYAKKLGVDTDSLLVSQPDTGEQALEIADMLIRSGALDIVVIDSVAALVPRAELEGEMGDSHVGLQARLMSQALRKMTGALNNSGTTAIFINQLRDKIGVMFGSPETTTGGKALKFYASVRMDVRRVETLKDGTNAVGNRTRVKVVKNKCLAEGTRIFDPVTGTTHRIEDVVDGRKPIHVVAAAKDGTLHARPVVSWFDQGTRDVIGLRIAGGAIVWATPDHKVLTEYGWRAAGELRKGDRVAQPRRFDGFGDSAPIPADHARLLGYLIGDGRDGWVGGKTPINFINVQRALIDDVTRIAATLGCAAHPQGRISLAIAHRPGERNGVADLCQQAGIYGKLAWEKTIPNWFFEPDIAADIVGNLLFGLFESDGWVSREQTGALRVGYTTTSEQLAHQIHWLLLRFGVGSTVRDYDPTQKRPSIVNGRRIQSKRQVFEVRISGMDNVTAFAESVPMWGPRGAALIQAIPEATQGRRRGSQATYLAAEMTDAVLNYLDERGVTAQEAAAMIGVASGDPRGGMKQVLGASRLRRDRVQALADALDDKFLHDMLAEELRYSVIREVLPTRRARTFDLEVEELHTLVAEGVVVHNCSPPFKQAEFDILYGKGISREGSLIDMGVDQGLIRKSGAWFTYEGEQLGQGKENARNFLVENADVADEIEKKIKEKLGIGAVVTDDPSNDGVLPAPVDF
Arbovirus inh – blocks arbovirus infection | arbovirus infection cell-based antiviral screen | inhibition, % at 10 µM | 200,000 compounds, 0.37% hits | AID 1251;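 active = inhibition from about 30%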;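 also: bluetongue infection of BSR cells; cell survival read as ATP light after 72 h; 0% = infected wells without compound and 100% = uninfected wells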
Arbovirus inh repeat – recorded beside Arbovirus inh, whose call it bears; inhibition, %; measured here: 10K subset replicate screen; many hits read low in the repeat;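 first of two repeat runs on a subset; 0% = infected and 100% = uninfected wells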
The depositor's hits bear a star; ? = inconclusive; nt = not tested or not shown; & = joins results of further samples.

SMILES	YopH inh	Mtb betalactam	Mtb growth	RecA splice inh	Arbovirus inh	others
COc1ccccc1CNc1ncnc2c1cnn2-c1ccccc1	nt	-1	12%	1.3	-15	Arbovirus inh repeat=-10
Cc1cc(C)nc(SCC(=O)c2ccc(O)c(O)c2)n1	nt	-2	nt	-3.5	nt
COc1ccc(NS(=O)(=O)c2c(C)[nH]c(C)c2C(=O)N2CCCCC2)cc1Cl	nt	-3	nt	0.2	nt
O=S(=O)(NCc1ccccc1)c1ccc(Cl)cc1	4	9	11%	-2.8	-1
CCOC(=O)c1c(C)[nH]c(C)c1S(=O)(=O)NC(C)Cc1ccco1 (stereo not given)	nt	15	nt	-1.8	nt
COc1cccc(C2C(C#N)=C(N)OC3=C2C(=O)CCC3)c1OC(=O)c1ccco1 (stereo not given)	30	10	4%	2.7	0
C=CCOc1cccc(/C=C2\C(=O)N(Cc3ccc(C)cc3)C(C)=C2C(=O)OC)c1	-18	4	7%	3.2	9
Cc1cc(C(=O)NC2CCCCC2C)c2ccccc2n1 (stereo not given)	nt	-8	nt	-0.6	nt
N#CC1=C(N)Nc2ncnn2C1c1ccc([N+](=O)[O-])cc1 (stereo not given)	nt	-6	-1%	-0.7	nt
CN1CCN(Cc2ccccc2C(F)(F)F)CC1	-15	-2	-4%	2.2	11
Cc1ccc(-c2cn(C[C@H]3CC[C@@H]([C@@H]4CC[C@H](Cn5cc(-c6ccc(C)cc6)nn5)O4)O3)nn2)cc1	nt	-2	nt	-2.7	nt
O=C(CCSc1nc2ccccc2o1)Nc1ccccc1	nt	-2	nt	3.9	nt
COc1ccc(NS(=O)(=O)c2cc(NC(=O)c3cc(=O)c4ccccc4o3)ccc2OC)cc1	nt	-2	1%	-1.2	0
O=C1Nc2ccccc2CCC1Sc1nnc(-c2ccc(Cl)cc2)s1 (stereo not given)	4	0	-2%	-1.1	-2
CC1=C(C(=O)Nc2ccc(Cl)cc2C(=O)N2CCC(C(N)=O)CC2)SCCO1	nt	1	nt	-2.7	nt
COc1ccc(S(=O)(=O)N2CCCC(C(=O)NCc3ccncc3)C2)cc1Cl (stereo not given)	-25	-1	-10%	2.2	13
Cc1[nH]c(C(=O)N/N=C/c2ccc(C(=O)O)cc2)c(C)c1C(=O)N/N=C/c1ccc(C(=O)O)cc1	-51	4	-29%	1.8	-7
COc1ccc(NC(=O)N2CCCC2C(=O)Nc2cccc(C)c2C)cc1 (stereo not given)	nt	-2	nt	-0.9	nt
CCn1nc(C)c(/C=N/NC(=O)c2ccoc2C)c1C	0	9	-6%	-2.4	0
CN(CCC#N)c1ccc(/C=C(\C#N)c2ccccn2)cc1	-8	-1	8%	-17	-14
Cc1c(Cl)c(C(=O)NNC(=S)Nc2ccccc2)nn1C	-26	-5	nt	1.2	-8
CCOc1ccc2[nH]c(=O)c(CN(CCCO)C(C)=O)cc2c1	-49	-7	1%	-2.4	7
Nc1nc(C(=O)N2CCOCC2)nn1C(=O)c1ccc(Cl)cc1	-37	-4	4%	32*	3
CCc1ccc(C(=O)OCC(=O)c2c(N)n(CC(C)C)c(=O)n(C)c2=O)cc1	nt	0	2%	1.7	4
CC(C)[C@H](NS(=O)(=O)c1cccc(C(F)(F)F)c1)C(=O)OCC(N)=O	nt	-2	3%	1.3	-1
SMILES	YopH inh	Mtb betalactam	Mtb growth	RecA splice inh	Arbovirus inh	others
O=C(Nc1ccc(F)cc1)C(Sc1nnc2ccccn12)c1ccccc1 (stereo not given)	-15	1	-2%	-1.7	-5
N#CC(c1ccccc1)(c1ncc(C(F)(F)F)cc1Cl)N1CCOCC1 (stereo not given)	-50	-13	nt	4.5	5
Oc1ccc[n+](CC(O)c2ccccc2)c1 (stereo not given)	nt	-5	nt	-2.9	nt
O=C(C1=C(O)C(=O)N(CCCn2ccnc2)C1c1ccccc1)c1ccco1 (stereo not given)	nt	2	nt	2.5	nt
CNC[C@H](Cc1ccccc1)NC[C@@H](Cc1cccc2ccccc12)NCCc1ccc(C)cc1	nt	98	nt	14	nt
Cn1c(SCC(=O)Nc2cccc(NC(=O)c3cccs3)c2)nnc1-c1ccncc1	-49	-11	-2%	0.9	3
Cc1nc2ncnn2c(C)c1CCC(=O)NCCCN1CCN(c2cccc(Cl)c2)CC1	-10	-2	nt	-4.0	0
COC(=O)c1sc(N2C(=O)c3oc4ccccc4c(=O)c3C2c2cccs2)nc1C (stereo not given)	13	nt	-3%	nt	-20
CCOc1ccc(C(CC(=O)O)NC(=O)c2cccs2)cc1 (stereo not given)	-15	-4	-3%	-0.7	2
CCCCC1=NC2(CCCC2)C(=O)N1Cc1ccc(-c2ccccc2-c2nn[nH]n2)cc1	nt	0	0%&-5%	4.8	24
N#CC(C#N)=C(C#N)c1ccc(Nc2ccccc2)cc1	nt	11	nt	52*	nt
COCCNC(=O)CSc1ncnc2sc(-c3ccccc3)cc12	nt	-5	-7%	-1.4	2
CC1CCN(CC(=O)Nc2ccc(S(=O)(=O)N3CCCCC3)cc2)CC1	nt	4	nt	1.0	nt
COc1ccc(/C(N)=N/OC(=O)c2cccc([N+](=O)[O-])c2)cc1OC	-9	3	2%	1.1	7
CC(C)Oc1ccc(CNC(=S)N/N=C/c2ccc([N+](=O)[O-])cc2)cc1	-9	9	7%	1.7	-12
CN(C)c1c(F)cc(C(=O)NC(=O)NCc2cccnc2)cc1F	nt	-3	nt	-0.4	nt
COc1ccc(CN(C(=O)c2cc(=O)c3ccccc3o2)C2CCS(=O)(=O)C2)cc1OC (stereo not given)	nt	-4	nt	4.1	nt
C#CCOCCOCCOCCNc1nc(N2CCN(C(=O)[C@H](CCCCN)n3cc(C(N)CC(C)C)nn3)CC2)nc(N2CCN(C(=O)[C@H](CCC(=O)O)n3cc(C(N)[C@H](C)CC)nn3)CC2)n1 (stereo not given in full)	nt	-13	-7%	1.6	4
O=C1CC(N2CCN(c3cccc(C(F)(F)F)c3)CC2)C(=O)N1c1ccc(F)cc1 (stereo not given)	-38	-1	-1%	3.0	2
O=C(NC1CCOCC1)C1CCC(=O)N(CCc2ccc(Cl)cc2)C1 (stereo not given)	nt	6	nt	-0.6	nt
CC(C)(C)OC(=O)CNC(=O)c1[nH]cnc1C(=O)NCCCCCNC(=O)OC(C)(C)C	nt	-3	nt	-0.7	nt
CCCCc1nc2ccccc2n2cc3c(=O)n(C)c(=O)n(C)c3c12	-26	nt	nt	nt	2	Arbovirus inh repeat=1
Cc1nc2cc(C(F)(F)F)ccc2n1CCNc1nc(-c2ccc(F)cc2)cs1	nt	2	nt	-3.8	nt
CC(C)C(c1nnnn1C1CCCC1)N1CCN(c2ccccc2F)CC1 (stereo not given)	-24	-12	8%	1.4	-3
CCOC(=O)CSc1nnc(-c2ccc([N+](=O)[O-])cc2)o1	nt	100	0.32µM*	0.0	12
SMILES	YopH inh	Mtb betalactam	Mtb growth	RecA splice inh	Arbovirus inh	others
CCC(=O)NC(Nc1cc(C)cc(C)n1)(C(F)(F)F)C(F)(F)F	-24	-2	1%	-1.7	-4
CC(=O)Oc1ccc(-c2ccc(C(=O)Nc3cccc(S(=O)(=O)N4CCOCC4)c3)cc2)cc1	nt	-4	13%	-1.8	-20
c1ccc(COC2CCCN(Cc3nc(-c4cccs4)no3)C2)nc1 (stereo not given)	nt	0	-3%	0.2	4
O=C(NC(Cc1ccccc1)C(=O)O)/C(=C/c1ccco1)NC(=O)c1cccc([N+](=O)[O-])c1 (stereo not given)	nt	5	-2%	-2.5	-3
Cc1ccc(-c2nc(SCC(=O)N(C)c3c(N)n(Cc4ccccc4)c(=O)[nH]c3=O)n[nH]2)cc1	nt	1	nt	1.8	nt
CCCNC(=O)OC[C@H]1O[C@H](CCO/N=C/C[C@@H]2C=C[C@H](OC(C)=O)[C@@H](COC(C)=O)O2)C=C[C@@H]1Oc1ccc(OC)cc1	-14	-4	nt	1.1	15
O=C(Nc1sc(-c2ccccc2)cc1C(=O)O)c1ccccc1	nt	85	17%	-1.3	nt
COc1ccccc1N1CCN(C(=O)c2ccc3[nH]c4c(c3c2)CCCC4)CC1	-28	50	1%	2.2	-10
CCO[C@@H]1OC(C(N)=O)=C[C@H](C2CC2)[C@H]1CCCO	nt	-1	-9%	-2.5	nt
Cc1nn2cc(-c3ccc(N)cc3)nc2s1	-38	-7	-2%	0.6	-1
COC(=O)C(Cc1ccccc1)NC(=O)c1cccc(S(=O)(=O)N(C)C)c1 (stereo not given)	nt	-13	-7%	-0.1	-3
CCOC(=O)C1CCCN(C(=O)c2sc3nc(-c4ccc(OC)cc4)cn3c2C)C1 (stereo not given)	-31	-2	nt	-2.5	7
Cc1ccccc1CC(=O)N1CCN(S(=O)(=O)c2cccs2)CC1	nt	-18	nt	-1.3	nt
Nc1ccc(Oc2ncccn2)c(Cl)c1	nt	2	nt	-2.0	nt
CCCNC(=O)c1ccccc1NS(=O)(=O)c1ccc(OC)c(OC)c1	-38	-10	-17%	2.1	1
Cc1ccc(S(=O)(=O)N2CCC(C(=O)NCCCOC(C)C)CC2)cc1	-8	5	-9%	0.8	2
CC(C)OC(=O)Cn1cnc2ccc(Br)cc2c1=O	-32	46	-2%	3.4	0
COC(=O)c1cccc(NC(=O)NC(=O)c2ccccc2Cl)c1	nt	0	nt	-1.5	nt
O=C(c1cccs1)N1CCN(C(=O)C(c2ccccc2)c2ccccc2)CC1	-149	-13	-3%	nt	5
COc1ccc(-c2csc(N3CCN(Cc4ccc5c(c4)OCO5)CC3)n2)cc1	-29	?	-4%	3.6	-2
CN(CC(=O)NCCc1ccc(F)cc1)Cc1ccccc1	nt	5	nt	0.0	nt
CCC1(C)Cc2c(C#N)c(N)n(-c3ccccc3)c(=S)c2CO1 (stereo not given)	nt	-6	-8%	-0.8	2

These rows are one share of the data (hit frequency here may not be typical).
